High-throughput results from PubChem.
BasE inh = inhibitors of Acinetobacter baumannii siderophore enzyme BasE | inhibition, % (concentration not given with the values) | purified BasE, fluorescence polarization binding displacement | 84,000 compounds, 0.1% hits;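 active = both replicates above 25% with normal brightness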;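 note: 0% = negative plate control signal and 100% = positive plate control signal; stock transfer was 100 nL into about 30 µL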
KSHV LANA nucl = inhibitors of KSHV LANA binding to nucleosomes; FITC-LANA1-23 / chicken nucleosome fluorescence polarization; stronger effect = lower value; z-score (no concentration beside the values); 51,000 compounds, 0.3% hits; AID 720717;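 active = both repeat wells score below -2 in polarization z-score versus plate sample wells, excluding overly bright wells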;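 note: 100 nL library stock added to about 30 µL; numbers are from one replicate; some results filed as inactive read as strong as hits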
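Assay system: purified chicken nucleosomes with FITC-labelled LANA N-terminal peptide (1-23) / Probe or stimulus: 50 nM FITC-LANA1-23 probe / Compound dosing: pin-transferred compound, 100 nL / Times: compound with peptide–nucleosome mix 10–45 min at room temperature / Technique: fluorescence polarization, 480 nm excitation, 535 nm parallel and perpendicular emission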
The depositor's hits bear a star; . = not tested or not shown; & = joins results of further samples. The list is partial, so the mix of outcomes need not match the whole.

Under each structure: KSHV LANA nucl, BasE inh
CC/C(=N/NC(=O)C1C2CCCCC21)c1ccc(O)cc1 (stereo not given)
 : -1.4, 2.1
COc1c(Cl)cc(Cl)c(OC)c1C(=O)N1CC(C)OC(C)C1 (stereo not given)
 : 2.2, .
O=C(Nc1cccc(Br)c1)C1CCC1
 : ., -1.0
Cc1ccc(CC2SC(=O)NC2=O)o1 (stereo not given)
 : -0.14, .
CC(CCc1ccc(O)cc1)NCCc1ccc(O)c(O)c1 (stereo not given)
 : 0.62&0.096, -2.0
COc1ccc(Cn2c(=O)sc3ccccc3c2=O)cc1
 : -0.79, .
C=CCn1c(C)cc(C(=O)CSc2nnc(-c3ccccc3)n2CC)c1C
 : ., -1.5
O=C(c1ccc2c(c1)sc1nc(-c3ccc(F)cc3)cn12)N1CCOCC1
 : 0.78, -1.8
CCOC(=O)c1ncn(Cc2ccccc2)c1N
 : ., 0.0
NC(=O)c1ccc[n+]([O-])c1
 : 0.027, 0.5
O=S(=O)(Nc1ncccn1)c1ccc(NC(=S)NN2CCOCC2)cc1
 : -0.85, 1.7
C=CCSc1nnc(-c2ccc(C(C)(C)C)cc2)n1Cc1ccco1
 : 0.59, -3.7
COc1cccc(C(=O)Nc2noc3ccccc23)c1
 : -0.35, 1.0
COc1ccc(NS(=O)(=O)/C=C/c2ccccc2)cc1
 : ., -3.0
Cc1ccc(S(=O)(=O)CCC#N)cc1C
 : -0.23, 0.7
CC(=O)N1CCC(N(Cc2ccco2)C(=O)NC23CC4CC(CC(C4)C2)C3)CC1
 : 0.87, 0.2
O=c1c2c3c(sc2nc2sc(C4CC4)nn12)CCCC3
 : ., 1.1
Cc1cc2[nH]c(=S)[nH]c2cc1C
 : -0.89, -1.9
CCCC(=O)Nc1nc(C(=O)OCC)cs1
 : -0.51, 0.2
C/C(=N\NC(N)=O)C1CC(c2ccccc2)C(=O)O1 (stereo not given)
 : 0.067, -0.8
CC(=O)N1CCc2cc(S(=O)(=O)CCC(=O)Nc3c(C)cccc3C)ccc21
 : -0.43, 2.2
Cc1cc(NC(=O)Nc2ccc3c(c2)OCCO3)c(C(F)(F)F)o1
 : -1, 3.6
Cc1cc(C)nc(SCC(=O)Nc2nc(=O)c3ccccc3s2)n1
 : -0.35, 1.5
Cc1ccccc1C(=O)Nc1c(C(=O)N2CCOCC2)oc2ccccc12
 : ., 1.1
COc1cc(OC)c(-c2nc(-c3ccccc3)c(-c3cccs3)[nH]2)cc1OC
 : ., 0.3
C=Cc1c(C)c2cc3nc(cc4[nH]c(cc5nc(cc1[nH]2)C(C)=C5CCC(=O)O)c(CCC(=O)OC)c4C)[C@@]1(C)C3=CC=C(C(=O)OC)C1C(=O)OC (stereo not given in full) (tested in a mixture with another compound)
 : -0.54, -3.1
CS(=O)(=O)c1sc(C(=O)NC(=S)Nc2ccc(OC(F)(F)F)cc2)c2c1C=CCC2
 : ., 0.9
CC1CC(C)CN(C(=O)CSc2nnc(-c3ccccc3)o2)C1 (stereo not given)
 : 1.7, -3.0
CC1(C)OC(=O)C(=CNC(C(=O)O)c2ccccc2)C(=O)O1 (stereo not given)
 : 0.48, 2.2
CN1C(=O)Cc2ccccc21
 : 0.22, 0.7

Quoted at random: 2 compounds from above.
Under each structure: KSHV LANA nucl, BasE inh
COc1cc(OC)c(-c2nc(-c3ccccc3)c(-c3cccs3)[nH]2)cc1OC
 : ., 0.3
Cc1ccccc1C(=O)Nc1c(C(=O)N2CCOCC2)oc2ccccc12
 : ., 1.1

Continuation:
Under each structure: KSHV LANA nucl, BasE inh
CC(=O)Oc1cn(OC(C)=O)c2ccc(Br)cc12
 : -1.2, 0.6
Cc1ccc(N2COc3ccc4c5c(c(=O)oc4c3C2)CCC5)cc1
 : -0.25, -0.7
Cc1ccc(NC(=O)COc2ccccc2C(N)=O)cc1F
 : ., -0.4
CC1=C(c2ccccc2)S(=O)(=O)NC1=NC1CCCCC1C (stereo not given)
 : -0.44, 1.0
O=C(CSc1nc(C2CC2)nc2ccccc12)N1CCCCC1
 : -1.1, -1.9
Oc1ccc(-n2ccnc2)cc1
 : ., 2.3
CC(C)(C)NC(=S)Nc1cc(C(F)(F)F)ccc1N1CCCCC1
 : ., -0.7
C=CCn1cc(C(=O)NCC(OC)OC)c(=O)c2cc(S(=O)(=O)N3CCC(C)CC3)ccc21
 : 0.11, 0.1
COc1ccc(Br)cc1/C=N/n1cnnc1
 : 0.036, -0.6
CC(C)C(NS(=O)(=O)c1cccc2nsnc12)C(=O)O (stereo not given)
 : ., 4.2

An excerpt from above in order of the KSHV LANA nucl value, falling.
compound | KSHV LANA nucl
COc1ccc(Br)cc1/C=N/n1cnnc1 | 0.036
CC1=C(c2ccccc2)S(=O)(=O)NC1=NC1CCCCC1C (stereo not given) | -0.44
CC(=O)Oc1cn(OC(C)=O)c2ccc(Br)cc12 | -1.2

(list continues)
Under each structure: KSHV LANA nucl, BasE inh
CC(C)c1cc(C(C)C)c(S(=O)(=O)NCc2ccccc2)c(C(C)C)c1
 : ., 2.0
CCCCC(=O)NCc1ccc(F)cc1
 : -0.36, 4.5
N#Cc1c(C(F)(F)F)nc(=O)n2ccccc12
 : ., 4.4
O=S1(=O)N=C(N2CCc3ccccc3C2)c2ccccc21
 : ., -2.2
Cc1cc(OCC(=O)NCc2ccco2)c(C)cc1Br
 : -2, 0.5
O=C(Cn1nnc2ccccc21)N/N=C1\CC(c2ccccc2)Oc2ccccc21 (stereo not given)
 : ., 2.3
CN1C(=O)S/C(=C\c2ccc(-c3ccc(C(=O)O)c(Cl)c3)o2)C1=O
 : ., 21
N/C(=N\C(=S)Nc1cc(Cl)ccc1Cl)c1ccccc1
 : ., 1.7
COC(=O)c1c(N)oc2c(-c3ccc(C)cc3)c3c(C(=O)OC)c(N)oc3cc12
 : 0.41, 2.8
CC(C)C(=O)Nc1c(C(=O)Nc2ccc3c(c2)OCO3)oc2ccccc12
 : 0.59, -0.7
CC1CN=C(c2cccn2Cc2ccc(F)cc2)O1 (stereo not given)
 : -0.38, 0.6
COc1ccc(C2Sc3ccccc3N2S(C)(=O)=O)cc1 (stereo not given)
 : -0.3, .
CCCCn1c(CNC(=O)c2ccco2)nnc1SC(C)C(=O)Nc1sc2c(c1C(=O)OCC)CCC2 (stereo not given)
 : -0.45, -0.8
CC(C)(C)CC(C)(C)NC(=O)c1ccccc1
 : 0.11, 1.0
O=C(CCC(=O)c1cccs1)Nc1ccc2c(c1)OCO2
 : ., -2.6
COC(=O)C(Cc1ccccc1)NC(=O)c1ccc(C#N)cc1 (stereo not given)
 : ., 0.8
CCCCNS(=O)(=O)c1cnn(CC)c1
 : 0.32, 3.6
Cc1noc(C)c1C(=O)O/N=C(\N)Cn1ccc(C(F)(F)F)n1
 : 0.49, 3.6
COc1ccc(OC)c(N=C(N)N=C(N)N)c1
 : 0.17, 0.2
Cc1ccc(C)c(S(=O)(=O)n2nnc3ccccc32)c1
 : -0.77, 1.9
COc1c(C=O)c(O)cc2c1C(=O)c1ccccc1C2=O
 : 0.012, 13
Cc1c(C)c(C)c(CSc2cccc(NC(=O)/C=C/C(=O)O)c2)c(C)c1C
 : ., 0.1
COc1cccc(C(=O)Nc2cc(F)cc(F)c2)c1
 : -0.057, -2.2
O=C(Oc1ccc(Oc2ccccc2)cc1)N1CCC(OC(=O)n2ccnc2)CC1
 : ., 0.3
CCN=C1SC(C(=O)Nc2ccc(OCC)cc2)CC(=O)N1CC (stereo not given)
 : 0.2, 1.1
Cc1cccc(N2CCN(C(=O)C(Cc3ccccc3)NC(N)=O)CC2)c1C (stereo not given)
 : ., 0.0
CCOC(=O)c1cnn(-c2ccccc2)c1NC(=O)Nc1ccccc1
 : -0.041, -0.4
O=C(Cn1cnc2c(nnn2Cc2ccccc2)c1=O)N1CCCC1
 : 2.2, -0.9
COC(=O)N1c2ccccc2C=CC1C#N (stereo not given)
 : ., 1.0
O=c1nc(SCc2ccccc2)nc2ccccn12
 : -0.99, 2.6

Four entries out of the list, ordered by count of non-hydrogen atoms, rising:
Under each structure: KSHV LANA nucl, BasE inh
COC(=O)N1c2ccccc2C=CC1C#N (stereo not given)
 : ., 1.0
CCN=C1SC(C(=O)Nc2ccc(OCC)cc2)CC(=O)N1CC (stereo not given)
 : 0.2, 1.1
Cc1c(C)c(C)c(CSc2cccc(NC(=O)/C=C/C(=O)O)c2)c(C)c1C
 : ., 0.1
Cc1cccc(N2CCN(C(=O)C(Cc3ccccc3)NC(N)=O)CC2)c1C (stereo not given)
 : ., 0.0

Other compounds:
Under each structure: KSHV LANA nucl, BasE inh
Brc1ccc(C=NC2CCCCC2)cc1
 : ., 3.9
O=C(c1ccc(Br)o1)n1cnc2ccccc21
 : 0.26, 7.6
CCOC(=O)c1nc(NCc2cccs2)c2ccccc2n1
 : -0.24, -3.6
CC(=O)Nc1cccc(-c2nnc(SCc3ccccc3)o2)c1
 : -0.61, -5.4
CSc1sc(C(=O)O)c(I)c1S(=O)(=O)C(C)C
 : ., -0.4
c1ccc2c(c1)c1ccccc1n2CCOCCN1CCCCC1
 : ., 0.9
CCOC(=O)N1CCC(NC(=O)CCN2C(=O)C3C4C=CC(C4)C3C2=O)CC1 (stereo not given)
 : -0.4, -2.5
COC(=O)c1ccc2c(=O)[nH]c(CSc3nnc(-c4cccs4)n3N)nc2c1
 : ., -1.5
CS(=O)(=O)Cc1cc(F)cc2c1OCOC2
 : ., -0.2
O=C1NC(=O)N(Cc2ccccc2Cl)C(=O)/C1=C/N1CCCCC1
 : 0.16, -1.8
Cc1ccccc1CN1CCN(CCOCCO)CC1
 : 0.34, -2.4
CCCc1n(CC(O)COc2ccccc2C)c2ccccc2[n+]1C (stereo not given)
 : ., 18
COc1ccc(C(C)C)cc1S(=O)(=O)N1CCCC1
 : 0.86, 1.0
Cc1noc(C(=O)N2CCC(Cc3ccccc3)CC2)c1Cl
 : -0.15, 1.6
CCN(CC(=O)Nc1cc(C)on1)c1cccc2ccccc12
 : ., -3.7
O=C(CN(c1ccc(F)cc1)S(=O)(=O)c1ccc2c(c1)OCCO2)N1CCN(Cc2ccc3c(c2)OCO3)CC1
 : -0.23, 0.0
CN(C)CCC(=O)NN
 : ., 2.3
CN1CC(=O)N(c2ccccc2)C1=S
 : 0.042, -0.2
O=C1c2ccccc2S(=O)c2ccccc2S(=O)(=O)N1Cc1ccccc1 (stereo not given)
 : ., 4.5
CCOC(=O)N1CCN(C(=O)CNC(=O)Cn2cnc3ccccc3c2=O)CC1
 : 1.7, 0.3
CN(C)/C=C(\C(=S)c1ccccc1)c1ccccc1
 : ., -2.9
Nc1nnc(SCc2nc3scc(-c4ccc(Cl)cc4)c3c(=O)[nH]2)s1
 : ., -0.1
CC(C)(C)C1CCC(OC(=O)CCC(=O)O)CC1 (stereo not given)
 : -0.64, 0.1
O=C(O)CCC(=O)c1ccc2c(c1)OCCCO2
 : ., 3.0
C/C(=N\OCC(=O)N1c2ccccc2CC1C)c1cc2ccccc2o1 (stereo not given)
 : ., -3.6
O=C(Cn1c(=O)c2cccn2c2ccc(F)cc21)N1CCN(C(=O)c2ccco2)CC1
 : -0.28, -0.2
O=C(NCCc1ccco1)c1cn(-c2ccc(F)cc2)nn1
 : 3.1, -1.1
CCCS(=O)(=O)N1CCN(S(=O)(=O)CCC)CC1
 : 1.8, -3.3
Cn1c(C(=O)N2CCCC(C(=O)O)C2)cc2sccc21 (stereo not given)
 : -1.2, 2.7
O=S(=O)(Cc1ccccc1)Nc1ccc(S(=O)(=O)N2CCCCC2)cc1
 : -0.43, -0.6
O=C(CNC(=O)NC1CCCCC1)NC1CC1
 : ., -0.5
O=C(NCCc1cn2c(n1)SCC2)c1ccc(-c2ccccc2)cc1
 : -0.59, -1.3
CCOC(=O)c1sc(N)c(C(=O)OCC)c1CNC(C)(C)C
 : ., 1.3
CCC1CCCCN1C(=O)Nc1ccccc1 (stereo not given)
 : -0.3, 0.8
Cc1nn(-c2ccccc2Cl)c(Cl)c1/C=N/N=c1\sc2ccccc2n1C
 : ., 2.6
CCC1CCCCN1C(=O)CSc1nc2c(cnn2-c2ccc(Cl)cc2)c(=O)[nH]1 (stereo not given)
 : -0.64, 0.3
Nc1nnc(SCC(=O)OCC(=O)N2CCCCC2)s1
 : ., -0.4
Cc1nc(S(=O)(=O)N2CCN(C3c4ccccc4-c4ccccc43)CC2)cn1C
 : ., -0.4
Cc1ccc(Cn2c(=O)n(Cc3ccccc3)c(=O)c3cccnc32)c(C)c1
 : -0.53, -0.3
Cn1c(Cc2cccs2)nnc1SCc1cc(=O)n2ccsc2n1
 : ., 0.3
Cc1nc(Nc2ccccc2)sc1C(=O)Nc1ccccc1
 : ., -1.4
CCc1ccc(NC(=O)CNc2ccc(C#N)cc2)cc1
 : ., 3.7
COC(=O)c1ccc(OC(=O)CCN2C(=O)c3ccccc3C2=O)cc1
 : ., 0.6
CCOc1ccccc1CN1CCC(N2CCCCC2)CC1
 : 0.36, -0.9
CCNc1nc(NCC)nc(NNC(=S)Nc2ccc(OCC)cc2)n1
 : -1, 1.4
CCc1nnc(NC(=O)/C=C/c2cccs2)s1
 : ., -1.8
COc1cccc(Cc2nnc(-c3c(-c4ccccc4)noc3C)o2)c1
 : ., 1.8
CC1(C)Oc2ccc3ccc(=O)oc3c2/C(=C/NC23CN4CN(CN(C4)C2)C3)C1=O
 : -0.29, 3.8
O=S(=O)(c1ccccc1)N1CN(c2cccc(C(F)(F)F)c2)c2nc3ccccc3nc21
 : ., 1.7
Cc1cc(C)n(C(C)CC(=O)N2CCN(c3ccc(F)cc3)CC2)n1 (stereo not given)
 : -1.1, -0.4
CN(C)C(CNC(=O)c1n[nH]c2ccccc12)c1cccs1 (stereo not given)
 : ., 0.1
CC(C)=CC(=O)Nc1sc2c(c1C#N)CCCC2
 : 1.6, -0.5
CN1C(=O)c2cccc3cccc(c23)[S+]1c1ccccc1C(=O)O (stereo not given)
 : ., 0.6
